N370S GC = inhibitors or activators of N370S glucocerebrosidase for Gaucher disease. P04062. N370S GC spleen homogenate, 4MU-glucoside fluorescence. Potency, µM (top dose mostly 59.4 µM), inactives show at the highest dose activity change, negative = inhibition, actives largely listed as inhibitors. hit rate 0.092% among 330,000;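 note: 0% = full enzyme activity and -100% = no enzyme basal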
FEN1 inhibitor = human FEN1 inhibition; P39748; Recombinant FEN1 flap cleavage, fluorescence, 15 min; Potency, µM (titrated, usually from 114 µM), without a hit: top-dose activity change, negative = inhibition, most hits filed as inhibitors; hit rate 0.35% among 390,000; note: nearly all actives have a fitted effect of over 65% in size
Target sequence (P39748 whole entry, looked up): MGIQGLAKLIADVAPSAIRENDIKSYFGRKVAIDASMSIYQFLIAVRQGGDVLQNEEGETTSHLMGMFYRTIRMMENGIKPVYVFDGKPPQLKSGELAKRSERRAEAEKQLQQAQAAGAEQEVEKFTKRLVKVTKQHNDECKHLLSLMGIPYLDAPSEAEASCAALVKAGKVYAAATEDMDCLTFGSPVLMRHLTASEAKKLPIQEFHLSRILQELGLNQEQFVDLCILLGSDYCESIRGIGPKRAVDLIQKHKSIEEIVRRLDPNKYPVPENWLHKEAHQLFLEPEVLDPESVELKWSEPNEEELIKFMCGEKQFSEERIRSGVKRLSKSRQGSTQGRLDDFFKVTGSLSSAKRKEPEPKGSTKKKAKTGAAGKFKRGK
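Nuclease activity of 10 nM FEN1 was measured after 15 min of room-temperature exposure to titrated compounds, by adding 50 nM flap substrate and reading plates at 0 and 15 min.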
Numbers without * were called inactive; ? = inconclusive; . = not tested or not shown; & = joins results of further samples; [ ] = remark or other dose. Calls come from the whole dose curve; as a rule, active = well fitted curve in the direction sought with a large enough effect; inconclusive = small, poorly fitted or top-dose-only effect, or another doubt; inactive = no such curve, though single readings can be large; an effect the other way counts as inactive or inconclusive. Unless noted, % is set by controls: 0 for no effect and ±100 for the full control effect; potency is the fitted concentration of half-maximal effect. The list is partial, and most or all hits are left out here.

SMILES | N370S GC | FEN1 inhibitor
COc1ccc(/C=C(/NC(=O)c2cccs2)C(=O)Nc2ccc(C)cc2)cc1OC | 3% | -2%
C/C(=N\NC(=S)NCc1ccccc1)c1ccccc1 | 26% | -20%
CCN1/C(=C2/SC(=S)NC2=O)Sc2ccccc21 | -9% | -22%
COc1ccc(CCNC(=O)CSc2nnc(Cn3c(=O)sc4ccccc43)n2C)cc1OC | 1% | -5%
O=C(COC(=O)C1CCCCC1)Nc1ccc(N2CCCCC2)cc1 | -9% | 0%
CCCCCCn1c(N2CCC(C)CC2)nc2c1c(=O)[nH]c(=O)n2C | 3% | -2%
CCOCCCNC(=O)C(NC(=O)CNC(=O)c1ccccc1)c1ccccc1 (centres undefined) | -3% | -3%
Cc1cccc(COCC(Cc2ccccc2)N2CCN(C(=O)c3cc(Cl)cc(Cl)c3)CCC2=O)c1 (centres undefined) | 4% | -1%
N#CCC(=O)Nc1ccc(C(F)(F)F)cc1N1CCOCC1 | -1% | -15%
CCOC(=O)Cc1ccc(NC(=O)Nc2cccc(OCc3cc(=O)n4cc(C)ccc4n3)c2)cc1 | . | 3%
Cc1ccc(-c2nn(CC(=O)N(C)C)c(=O)c3ccccc23)cc1S(=O)(=O)N(C)C | 0% | 4%
COc1cccc(NS(=O)(=O)c2ccc3c(c2)n(C)c(=O)n3C)c1 | . | -4%
COc1ccc(-c2cc(C)no2)cc1S(=O)(=O)N1CC(C)Oc2ccccc21 (centres undefined) | . | 8%
O=C(NCc1ccncc1)c1c(F)c(F)c(F)c(F)c1F | 4% | 6%
COc1cccc(CNC(=O)c2ccc(C)c(S(=O)(=O)N3CCCCC3)c2)c1 | -3% | -5%
Cc1csc(C(C)N(C)C(=O)c2ccc(OC3CCN(Cc4ccccn4)CC3)cc2)n1 (centres undefined) | 1% | 1%
FC(F)(F)c1cc(N2CCN(Cc3ccccc3)CC2)c2ccccc2n1 | -1% | 5%
COCCn1c(SCC(=O)N2CCCCC2)nc2cccnc21 | 6% | 0%
O=C(O)c1cccc(C(=O)O)n1 | 3% | .
COc1ccc(-c2nc3ccc(Cl)cn3c2NC2CCCCC2)cc1SC1CCCCC1 | . | 2%
CCCn1c(N2CCN(CC(=O)c3c[nH]c4ccccc34)CC2)nc2c1c(=O)[nH]c(=O)n2C | -25% | -2%
CO/N=C/C(C#N)=C/c1ccc(OC)c(OC)c1 | -8% | 8%
CCc1cc2c(NC(Cc3c[nH]c4ccccc34)C(=O)O)nc(C)nc2s1 (centres undefined) | -6% | 3%
Cc1ccc([N+](=O)[O-])c(OCCCNCC(C)O)c1 (centres undefined) | -6% | -4%
O=S(=O)(NCc1ccccc1)c1ccc(-n2cccn2)cc1 | -6% | 1%
O=C(c1ccco1)N1CCN(Cc2nnnn2C2CCCCC2)CC1 | -20% | -3%
CC(NC(=O)c1cccc(S(=O)(=O)N(C)C)c1)C1CC2CCC1C2 (centres undefined) | 2% | 2%
CC(C)c1ccc(OCc2ccc(C(=O)N3CCCC3)o2)cc1 | ? | -21%
CCOC(=O)c1c(C)nc2c(c1-c1ccc(Cl)cc1)C(=O)CC(C)(C)C2 | -3% | -8%
COc1ccc(CCNC2CCc3ccccc3C2)cc1 (centres undefined) | -1% | -13%
CCc1noc(C)c1C(=O)OCC(=O)NCCc1ccc(OC)cc1 | -3% | -5%
CC1CCC(=C(C#N)C(=O)Nc2cccc(Cl)c2)CC1 (centres undefined) | 18% | -15%
COc1cc(OC)cc(-c2n[nH]c(=S)n2-c2ccc3c(c2)OCCO3)c1 | 0% | -4%
O=C(NNC(=O)c1cc(F)c(F)cc1Cl)c1ccc(NS(=O)(=O)c2cccs2)cc1 | . | 11%
Brc1ccc(CSc2nnc(-c3cccnc3)o2)cc1 | -2% | 12%
COc1cc(OC)c(N(C)C(=O)CCNC(=O)Cn2cnc3ccccc3c2=O)cc1Cl | 5% | -3%&-4%
Cc1cnc(CNC(=O)CC2C(=O)NCCN2Cc2cccc(F)c2F)cn1 (centres undefined) | 6% | -2%
CSc1ccccc1OCc1cc(C(=O)NCCCc2ccccc2)no1 | -4% | -1%
CC[C@H](C)[C@H](NC(N)=O)C(=O)Nc1ccc(NC(C)=O)cc1 | -4% | 6%
Cc1c(Cl)cccc1N(Cc1ccc(C(=O)O)cc1)S(=O)(=O)c1ccccc1 | -2% | -1%
NS(=O)(=O)c1cccnc1Nc1ccc(Cl)c(Cl)c1 | 4% | -17%
COCCNS(=O)(=O)c1ccc2c(c1)C(=O)c1cc(S(=O)(=O)NCCOC)ccc1-2 | -9% | -6%
CC1CCCC(NC(=O)CCNC(=O)c2ccc(Cl)cc2)C1C (centres undefined) | -4% | 6%
CCN(CC(=O)NCc1ccc(Cl)cc1)C(=O)c1cc(S(=O)(=O)N2CCOCC2)ccc1C | . | 2%
COc1ccccc1OCC#CCNC1CCCCC1C (centres undefined) | 7% | 3%
Cn1cnnc1SCCn1c(N2CCCCC2)nc2c1c(=O)[nH]c(=O)n2C | 9% | 14%
O=C1c2ccccc2C(=O)N1CCC#Cc1ccc2cc(CCO)oc(=O)c2c1 | . | 0%
COc1ccc(C2/C(=C(\O)c3ccc4c(c3)OCCO4)C(=O)C(=O)N2CCCN(C)C)cc1 (centres undefined) | -13% | 5%
O=[N+]([O-])c1ccc(N/N=C/c2ccccc2)cc1 | -4% | -14%
Cc1ccc(S(=O)(=O)Nc2cc(C(=O)Nc3cc(C)cc(C)c3)ccc2Cl)cc1 | 4% | -13%
COc1ccc(NC(=S)N(CCCN2CCOCC2)Cc2cn(C)c3ccccc23)cc1 | 0% | 6%
COc1ccccc1N1CCN(/N=C/C=C\c2ccccc2[N+](=O)[O-])CC1 | 3% | 5%
Cn1nnc2c(NCc3ccc(Cl)cc3)ncnc21 | . | -5%
CCCCNC(=O)Cn1c(=O)c2c(ncn2CCC(C)C)n(Cc2ccccc2)c1=O | -4% | 2%
Cc1ccccc1CS(=O)(=O)Cc1ccc(C(=O)NC2CCCCC2)o1 | 4% | -4%
Clc1ccc(-c2nnc3sc(Cc4cccs4)nn23)cc1 | 5% | -22%
CN(Cc1ccco1)C(=O)c1ccc(N2CCCC2=O)cc1 | 9% | -4%
CCCCCCCC/C=C\C/C=C\C/C=C\CCCC(=O)O | 15%&-7% | .
CCOC(=O)c1c(-c2ccc(C)cc2)csc1NC(=S)NC(=O)c1ccccc1 | 27% | -24%
O=C(Cc1ccc(F)cc1)Nc1c(C(=O)N2CCN(c3ncccn3)CC2)oc2ccccc12 | 1% | -20%

The results go on.
SMILES | N370S GC | FEN1 inhibitor
COc1ccc(C2=C(Nc3ccc(C)c(C)c3)c3ccccc3C2=O)cc1 | . | -26%
CC1=NN(C(=O)CCc2ccccc2)C(c2ccccc2)C1 (centres undefined) | 2% | -1%
Cc1nc(NCc2ccccc2)c2nc(-c3ccccc3)n(CCCN3CCOCC3)c2n1 | -15% | .
CCOC(=O)C1CCCN(S(=O)(=O)c2ccc(C)cc2)C1 (centres undefined) | 9% | -1%
O=c1c2sc3nc(N4CCOCC4)c4c(c3c2ncn1CCc1ccccc1)CCCC4 | 5% | -2%
Cc1[nH]c2ccccc2c1C(c1ccncc1)N1CCN(c2ccccc2F)CC1 (centres undefined) | -6% | 1%
CC(C#Cc1ccc2c(c1)COc1c3ccccc3nn1-2)OC(C)(C)C (centres undefined) | 1% | 10%
Cc1ccccc1NC(=O)CSc1nc(=O)n(CCN2CCOCC2)c2c1CCCC2 | -6% | 5%
FC(F)(F)c1ccccc1-c1ccc2ncnc(NC3CCNCC3)c2c1 | -3% | .
CC(=O)Oc1ccc2nc(-c3cccs3)oc(=O)c2c1 | 2% | -5%
COc1ccc(-n2c(SCC(=O)Nc3ccc4c(c3)OCO4)nc3c([nH]c4ccccc43)c2=O)cc1 | . | -2%
CCOC(=O)c1ccc(-n2[nH]c(-c3ccccc3)cc2=O)cc1 | 12% | 5%
O=C(COC(=O)c1ccc[nH]c1=O)NC1CCCCCCC1 | -5% | 0%
CC12CCC(=O)N1C(C(=O)Nc1nnc(SCc3ccc(F)cc3)s1)CS2 (centres undefined) | -6% | -3%
Cc1cc(=O)oc(C)c1C(=O)NCC1CCCO1 (centres undefined) | 6% | 5%
Cc1cc(NC(=O)c2cccc(S(=O)(=O)N3CCCCCC3)c2)no1 | -6% | -7%
CCn1c(=O)n(CC)c2cc(S(=O)(=O)N3CCOCC3)ccc21 | 3% | 9%
COC(=O)C(Cc1ccc(O)cc1)NC(=O)C12CC3CC(CC(C3)C1)C2 (centres undefined) | ? | 25%
CSc1ncccc1C(=O)OCC(=O)N1CCc2ccccc21 | . | 5%
N/C(Cc1cccc2ccccc12)=N\OC(=O)c1ccc(Br)o1 | -2% | .
O=C(OCC(=O)N1CCc2ccccc21)c1cccnc1Cl | 5% | 3%
O=C(NC(=O)c1cc(OCC(F)(F)F)ccc1OCC(F)(F)F)Nc1ccccc1 | 10% | -21%
O=C(CSc1nnc(CNC(=O)c2cccs2)o1)Nc1ccccc1F | 1% | -12%
CCS(=O)(=O)N1Cc2ccccc2CC1C(=O)OCC(=O)Nc1ccc(SC(F)F)cc1 (centres undefined) | ? | -2%
CCC(=O)Nc1ccc(-c2ccc(N3CCC(C)CC3)nn2)cc1 | 0% | 3%
COc1ccc2cc(C(c3nnnn3C3CCCC3)N3CCCCCC3)c3nnnn3c2c1 (centres undefined) | 22% | -12%
Cc1ccc(NC(=O)CN(C)C(=O)c2cc(-c3ccco3)nc3ccccc23)cc1 | 0% | -19%
Cc1oc(-c2ccc(F)cc2)cc1-c1nn2c(-c3ccoc3C)nnc2s1 | 2%[2.35 µM] | -11%
CCOC(=O)c1ccc(NC(=S)NCc2ccco2)cc1 | -1% | 3%
CC1CCCC(C)N1c1nnc(NC(=O)c2cc(-c3ccc(Br)cc3)on2)s1 (centres undefined) | -20% | -19%
COc1ccccc1CNc1ncncc1-c1ccoc1 | -18% | .
Cc1cccc(C)c1NC(=O)CNC(=O)CCNC(=O)c1ccco1 | . | 19%
CS(=O)(=O)N(CC(=O)Nc1ccccc1C(=O)N1CCOCC1)c1ccccc1 | -2% | 9%
CCOC(=O)c1c(S(=O)(=O)Nc2cccc(Cl)c2)c(C)n(C)c1C | -1% | 21%
COCCN(CC(=O)Nc1cccc(S(=O)(=O)N2CCCC2)c1)Cc1nc2ccccc2c(=O)[nH]1 | -10% | -1%
CCc1ccc(-n2nc(C)c3c(C(=O)N4CCN(c5ccccc5)CC4)cc(C)nc32)cc1 | . | -6%
O=C1C2CCCN2C(c2cccs2)N1c1ccc(F)cc1 (centres undefined) | -1% | -12%
COc1ccccc1C(=O)C1CCCN(C(=O)c2cc(CC(C)C)nc(C)n2)C1 (centres undefined) | 1% | -14%
Cc1cc(NC(=O)CNC(=O)C2CCCCC2)no1 | -5% | -3%
COc1cccc(CNC(=O)COC(=O)c2ccc(Cl)s2)c1 | . | -3%
O=C(NCC1CCCO1)C1CCN(C2CCN(C(=O)C3CCCCC3)CC2)CC1 (centres undefined) | -1% | 8%
O=C(COC(=O)CCN1C(=O)c2cccc([N+](=O)[O-])c2C1=O)NCc1ccccc1 | 8% | 11%
COc1ccc(O)c(C(c2c(C)[nH][nH]c2=O)c2c(C)[nH][nH]c2=O)c1 | -5% | -32%
COc1cc(Br)ccc1C1C(C(=O)Nc2ccc(C)cc2C)=C(C)Nc2nnnn21 (centres undefined) | . | 0%
Cc1ccc(NC(NC(=O)c2ccccc2[N+](=O)[O-])C(Cl)(Cl)Cl)cc1 (centres undefined) | 2% | -12%
CC(OC(=O)c1ncc(Cl)c(Cl)c1Cl)C(=O)NC1(C#N)CCCCC1 (centres undefined) | -4% | 14%
O=C(NCc1ccc(Cl)cc1)c1csc(-c2cccnc2)n1 | 1% | -14%
Cc1cc(NC(=O)COC(=O)C(Cc2ccccc2)NC(=O)c2ccco2)no1 (centres undefined) | 4% | 9%
COc1ccc(Cl)cc1NC(=O)C(C)N1CCc2ccccc21 (centres undefined) | 1% | -2%

Not a retest: 15 of the compounds above.
SMILES | N370S GC | FEN1 inhibitor
Cc1cccc(C)c1NC(=O)CNC(=O)CCNC(=O)c1ccco1 | . | 19%
CS(=O)(=O)N(CC(=O)Nc1ccccc1C(=O)N1CCOCC1)c1ccccc1 | -2% | 9%
CCOC(=O)c1c(S(=O)(=O)Nc2cccc(Cl)c2)c(C)n(C)c1C | -1% | 21%
COCCN(CC(=O)Nc1cccc(S(=O)(=O)N2CCCC2)c1)Cc1nc2ccccc2c(=O)[nH]1 | -10% | -1%
CCc1ccc(-n2nc(C)c3c(C(=O)N4CCN(c5ccccc5)CC4)cc(C)nc32)cc1 | . | -6%
O=C1C2CCCN2C(c2cccs2)N1c1ccc(F)cc1 (centres undefined) | -1% | -12%
COc1ccccc1C(=O)C1CCCN(C(=O)c2cc(CC(C)C)nc(C)n2)C1 (centres undefined) | 1% | -14%
Cc1cc(NC(=O)CNC(=O)C2CCCCC2)no1 | -5% | -3%
COc1cccc(CNC(=O)COC(=O)c2ccc(Cl)s2)c1 | . | -3%
O=C(NCC1CCCO1)C1CCN(C2CCN(C(=O)C3CCCCC3)CC2)CC1 (centres undefined) | -1% | 8%
O=C(COC(=O)CCN1C(=O)c2cccc([N+](=O)[O-])c2C1=O)NCc1ccccc1 | 8% | 11%
COc1ccc(O)c(C(c2c(C)[nH][nH]c2=O)c2c(C)[nH][nH]c2=O)c1 | -5% | -32%
COc1cc(Br)ccc1C1C(C(=O)Nc2ccc(C)cc2C)=C(C)Nc2nnnn21 (centres undefined) | . | 0%
Cc1ccc(NC(NC(=O)c2ccccc2[N+](=O)[O-])C(Cl)(Cl)Cl)cc1 (centres undefined) | 2% | -12%
CC(OC(=O)c1ncc(Cl)c(Cl)c1Cl)C(=O)NC1(C#N)CCCCC1 (centres undefined) | -4% | 14%
